# Vaccinia Venus: inhibitors of vaccinia virus (Venus reporter); AID 720580; actives 0.46% (n = 330,000); Potency, µM (highest dose often 36.5 µM), without a hit: at the top dose activity change, negative = inhibition, most hits filed as inhibitors; Vaccinia virus Venus reporter expression, fluorescence; active means well fitted inhibition curve with a large enough effect; inconclusive means small, poorly fitted or top-dose-only effect; inactive means no such curve, though single readings can be large or run the other way; tested in A549 cells; further: nearly all actives have a fitted effect of over 30% in size; inactives centre near -10
# Vaccinia mCherry: inhibitors of vaccinia virus infection (mCherry reporter signal); Vaccinia virus mCherry reporter infection, fluorescence; about a quarter of the inactives have no number; Potency, µM (doses to about 36.5 µM), for inactives: at the top dose activity change, negative = inhibition, hits mostly inhibitors; actives 0.63% (n = 310,000); AID 720579; active = well fitted inhibition curve with a large enough effect; inconclusive = small, poorly fitted or top-dose-only effect; inactive = no such curve, though single readings can be large or run the other way; tested in A549 cells; further: nearly all actives have a fitted effect of over 35% in size; inactives centre near -10
# * hit, by the source's call; i = inactive; u = inconclusive; x = not tested or not shown; [ ] = dose if it differs, or a comment. On the % scale 0 is the no-effect control and ±100 the full control effect; potency means the concentration at half of the fitted maximal effect.
Structure,Vaccinia Venus,Vaccinia mCherry
Cc1ccc2c(=O)c(C(=O)c3ccccc3)cn(CC(=O)Nc3ccccc3C)c2n1,-6%,-11%
Cc1cccc(-c2cc(C(=O)Nc3ccc4c(c3)OCCO4)c3ccccc3n2)c1,-5%,x
NC(=O)c1cc(-c2ccccc2)nc(N2CCOCC2)n1,-26%,x
O=[N+]([O-])c1cccc(CN2CCN(Cc3ccc(Cl)cc3)CC2)c1,-10%,-14%
O=c1oc2c(CN3CCOCC3)c(O)c(Cl)cc2c2c1CCCC2,-1%,-16%[1.46 µM]
O=C(c1cc(-c2ccc(Cl)cc2)on1)N(Cc1ccc(F)cc1)Cc1ccco1,2%,i
COc1ccc(-c2ccc(CN3C(C(C)C)C(=O)N(Cc4cn(CC5CCCCC5)nn4)CCS3(=O)=O)cc2)cc1 (stereo unspecified),u,-13%
CC1=C(C(=O)OCc2ccccc2)C(c2ccc(C(F)(F)F)cc2)NC(=O)N1CCCCCC(=O)O (stereo unspecified),-9%,2%
CCC(C)NC(=O)C1CCC(=O)N1Cc1ccc(C)cc1 (stereo unspecified),-13%,x
Cc1ccc(C)c(N2CCN(C(=O)C3CCN(C(=O)c4cc5sccc5n4C)CC3)CC2)c1,u,u
Cc1ccsc1-c1nc(CN2CCN(C)C(=O)[C@@H]2C)c(C)o1,-15%,-4%
COc1cccc(Nc2nnc(SCC3CCCCO3)s2)c1 (stereo unspecified),-10%,u
Cc1ccc(S(=O)(=O)Nc2c(NC3CCCCC3)c3ccccc3oc2=O)c(C)c1,0%[7.34 µM],-11%[7.34 µM]
O=C(N/N=C/c1cc(Br)c(O)c(Br)c1O)c1ccc2c(c1)OCCO2,u,u
COC(=O)c1ccc(C(=O)OC)c(NC(=O)CSc2nc(-c3ccco3)cc(C(F)(F)F)n2)c1,-8%,x
N#Cc1ccc(S(=O)(=O)N2CCC(N3CCCCC3)CC2)cc1,-6%,33%[activator]
Cc1ccc2nc(NCCCO)nc(-c3ccccc3)c2c1,u,u
COc1ccc(S(=O)(=O)Nc2ccc3c(c2)C(=O)N([C@H](C)CO)C[C@H](C)[C@H](CN(C)Cc2ccc(C(=O)O)cc2)O3)cc1,4%,-2%
N#Cc1ccccc1OCC(O)CS(=O)(=O)c1ccccc1 (stereo unspecified),-12%,-18%
Cc1cccc2cc(CN(C(=O)c3cccc(Cl)c3)c3ccccc3)c(=O)[nH]c12,-4%,-12%
O=C(CN(CCc1c[nH]c2ccccc12)S(=O)(=O)c1ccccc1)N1CCCCCC1,u,-23%
COCCCn1c(C)nc2c(c1=O)c1nc3ccccc3nc1n2CCc1ccccc1,-18%,-9%
Cn1cncc1C(=O)c1ccccc1,-13%,i
O=C(CCn1c(=O)c2cccn2c2ccc(F)cc21)NCCc1ccccc1,-2%,9%
CCCN(CCC)S(=O)(=O)c1ccc(C(=O)NCc2ccco2)cc1,-1%,-9%
COc1ccc2c3c([nH]c2c1)C1CC2C(CC(O)C(OC)C2C(=O)O)CN1CC3 (stereo unspecified),1%,-7%
Cc1ccc(Oc2ccc(-c3nc(N)nc(N)n3)cc2)cc1,-16%,-9%
CC(OC(=O)C1CCN(S(=O)(=O)c2ccc(Cl)cc2)CC1)C(=O)N1CCc2ccccc21 (stereo unspecified),-13%,x
Cc1cccc2nnc(-c3ccccc3)n12,-5%,-1%
CCOc1ccc(S(=O)(=O)Nc2ccc(C(=O)NCC3CCCO3)cc2)cc1 (stereo unspecified),-11%,-13%

# Rewritten with two lines to a compound: part of the list above.
# Screens in order: Vaccinia Venus	Vaccinia mCherry
Cc1ccc2nc(NCCCO)nc(-c3ccccc3)c2c1
    u	u
COc1ccc(S(=O)(=O)Nc2ccc3c(c2)C(=O)N([C@H](C)CO)C[C@H](C)[C@H](CN(C)Cc2ccc(C(=O)O)cc2)O3)cc1
    4%	-2%
N#Cc1ccccc1OCC(O)CS(=O)(=O)c1ccccc1 (stereo unspecified)
    -12%	-18%

# More results:
Structure,Vaccinia Venus,Vaccinia mCherry
O=c1c2ccccc2nnn1Cc1ccc2ccccc2c1,-3%,-3%
CCCC(=O)Nc1ccc(N2CCOCC2)cc1,-14%,-13%
CCN(CC)CCCNC(=O)N[C@@H](Cc1ccccc1)C(=O)O,-10%,x
CC(=O)C(=Cc1ccc(-c2ccccc2)cc1)C(=O)c1ccccc1,-13%,-5%
CNC(C)C(O)c1ccccc1 (stereo unspecified),-11%,-1%
COc1ccc(CCNC(=O)Cn2cnc3sc(C)c(-c4ccc(F)cc4)c3c2=O)cc1OC,-9%,-19%
COC(=O)c1ccc(CN2CCCC(C(=O)Nc3ccc(-c4ccn[nH]4)cc3)C2)cc1 (stereo unspecified),-15%,i
C/C(=N\Nc1nc2c(s1)CCCC2)c1ccc(Cl)cc1,-9%,u
CCN(CC)CCNC(=O)c1ccc(NC(=O)c2cn(-c3ccc(F)cc3)nc2-c2cccc(OC)c2)cc1,-23%,-22%
COc1ccc(Cl)cc1C(=O)C1CCCN(CCO)C1 (stereo unspecified),-10%,-5%
Cn1c2ccccc2c2cnn(CC(=O)N3CCN(c4cccc(C(F)(F)F)c4)CC3)c(=O)c21,4%,-10%
Cc1c(-c2ccc(F)cc2)nc(N)c(C#N)c1-c1cccnc1,-14%,7%
COc1ccc2nc(C)cc(NCc3cccc(C(F)(F)F)c3)c2c1,u,-26%
COc1nc(Cl)cn(-c2ccc(C)cc2)c1=O,-4%,i
CCOC(=O)C1=C(N)OC2=C(C(=O)CC(C)(C)C2)C1c1cccs1 (stereo unspecified),-12%,x
CCC(=O)Nc1ccc(NC(=O)c2ccccn2)cn1,-4%,-18%
CN(C)CCCNc1cc(Cl)c(S(=O)(=O)N2CCCCC2)cc1C(=O)O,-13%,i
CCCC[C@@H]1C=C(C(=O)O)[C@H](c2ccc(C)cc2)N1S(=O)(=O)c1ccc(C)cc1,-3%,-7%
Oc1oc(-c2ccccc2)nc1C=Nc1ccccc1,-9%,i
N#Cc1nc(Cc2cccc3ccccc23)oc1NCC1CCCO1 (stereo unspecified),-7%,i
CN1CCN(c2ccccc2NC(=O)c2ccc3c(c2)OCCO3)CC1,-8%,-19%
Cc1c(S(=O)(=O)NC2CCCCC2)c(=O)n(C)c(=O)n1C,-7%,-19%
O=C1CCC([N+](=O)[O-])C(c2ccc(-c3ccccc3)cc2)N1 (stereo unspecified),6%,i
C/C(=N\NC(=O)c1ccc(Br)cc1)C1C(=O)c2ccccc2C1=O,-23%,-1%
O=C(Cn1ncnn1)OCc1ccccc1Cl,-6%,x
Cc1cccc(N(C(=O)Cn2nnc3ccccc32)C(C(=O)NC(C)(C)C)c2ccsc2)c1 (stereo unspecified),-12%,-13%
COCCN(CCOC)c1ncnc2c1cnn2-c1ccccc1,-12%,10%
S=c1[nH]nc(-c2c[nH]c3ccccc23)o1,1%,-5%
CCOC(=O)CC[C@H](NC(=O)Cn1cnc2c(OCc3ccccc3)ncnc21)C(=O)OCC,0%,i
COc1ccc(-c2noc(-c3ccc(NC(C)c4ccccc4)c([N+](=O)[O-])c3)n2)cc1OC (stereo unspecified),1%,2%
Cc1cc(C)cc(-n2c(C)cc(/C=N/NC(=O)CSc3ncccn3)c2C)c1,u,u
CCCCCCCCN1C(=O)[C@H](CC(=O)NCc2cccc3ccccc23)C[C@@]2(C(=O)OC)CC(C)(C)CC=C12,u,u
O=C(NC1=NCCS1)C1CCN(S(=O)(=O)c2cc([N+](=O)[O-])ccc2Cl)CC1,-24%,u
Cc1cc(OCC(=O)Nc2ccccc2N2CCCC2)ccc1C(C)C,-10%,-10%
CC(Oc1ccc(Cl)cc1)C(=O)NCC1CCCO1 (stereo unspecified),-15%,-7%
Cc1ccc(-n2nc(CO)c(C(=O)NCCC(C)C)n2)cc1C,-29%,-25%
CCCCN(C(=O)c1cc(CC)c(C)s1)c1c(N)n(CCC)c(=O)[nH]c1=O,-9%,-10%
O=C(O)C(Cc1cc2ccccc2[nH]1)N1C(=O)C2CC=C(Cl)CC2C1=O (stereo unspecified),-27%,x
COC(=O)c1cc(S(=O)(=O)N2CCN(c3cccc(C)c3)C(C)C2)cn1C (stereo unspecified),-8%,-6%
Cn1c(-c2ccsc2)c(-c2cccs2)c2cc(-c3ccc4[nH]ccc4c3)ccc21,-16%,-17%
O=C(Nc1ccc2nc(-c3cccs3)[nH]c2c1)c1cccs1,7%,-6%
CC1=[N+]([O-])C(C)(C)CC(C)(C)c2ccccc21,7%,-7%
CSc1ccc(CCNC(=O)c2ccc(CS(=O)(=O)c3ccc(Br)cc3)o2)cc1,-12%,-8%
c1ccc(-c2ccccc2OCc2nnc3n2CCC3)cc1,-9%,-14%
OCC1(Cc2ccccc2)CCCN(Cc2c[nH]c3ccccc23)C1 (stereo unspecified),-9%,-18%
O=C(CSc1ncnc2c1cnn2-c1cccc(Cl)c1)NCC1CCCO1 (stereo unspecified),-14%,0%
Fc1ccc(-c2nc3c(Cl)cc(C(F)(F)F)cn3c2Cc2ccccc2)cc1,1%,-12%
O=C(c1ccc(Cn2c(=S)[nH]c3ccc(N4CCOCC4)cc3c2=O)cc1)N1CCN(c2ccc(F)cc2)CC1,-25%,-18%
Cc1cccc(C(=O)Nc2ccc(N3CCN(c4ccc(C(F)(F)F)cn4)CC3)nc2)c1,-10%,i
CC1CC[C@@]2(OC1)O[C@H]1CC3[C@@H]4C[C@@H](O)[C@@]5(O)C[C@@H](O)[C@H](O)C[C@]5(C)[C@H]4CC[C@]3(C)[C@H]1[C@@H]2C (stereo partly specified),-12%,i
CC(C)c1[nH]nc2c1C(c1ccco1)C(C#N)=C(N)O2 (stereo unspecified),-21%,-4%
O=C(N/N=C/c1cc([N+](=O)[O-])ccc1O)C(O)(c1ccccc1)c1ccccc1,-13%,-13%
Cc1cccnc1C(NC(=O)C1CCN(CCOc2ccc(F)cc2)CC1)c1ccc(F)cc1 (stereo unspecified),-16%,0%
N#CC1CCCc2c1[nH]c1ccc([N+](=O)[O-])cc21 (stereo unspecified),-14%,i
COC(=O)[C@@]1(Cc2ccc(F)cc2)[C@H]2c3cc(C(=O)N4CCCC4)n(C[C@H](O)CO)c3C[C@H]2CN1C(=O)c1ccccc1,-5%,19%
O=C1Nc2ccc(Br)cc2C1Cc1ccccc1F (stereo unspecified),-13%,-9%
Cc1c(NC(=O)Nc2ccc(C#N)cc2)c(=O)n(-c2ccccc2)n1C,-1%,-6%
COc1ccc(C2Nc3ccccc3C(=O)N2c2ccccc2)cc1COc1ccc(NC(C)=O)cc1 (stereo unspecified),-16%,3%
CCCC(C)NC(=S)Nc1cc(C)cc(C)c1 (stereo unspecified),-11%,i
COC1OC2COC(c3ccccc3)OC2C(OC(=O)c2ccccc2)C1OC(=O)c1ccccc1 (stereo unspecified),-15%,-9%

# 4 entries picked at random from the list so far, as already listed:
Structure,Vaccinia Venus,Vaccinia mCherry
COC1OC2COC(c3ccccc3)OC2C(OC(=O)c2ccccc2)C1OC(=O)c1ccccc1 (stereo unspecified),-15%,-9%
COc1ccc(C2Nc3ccccc3C(=O)N2c2ccccc2)cc1COc1ccc(NC(C)=O)cc1 (stereo unspecified),-16%,3%
COC(=O)[C@@]1(Cc2ccc(F)cc2)[C@H]2c3cc(C(=O)N4CCCC4)n(C[C@H](O)CO)c3C[C@H]2CN1C(=O)c1ccccc1,-5%,19%
O=C(O)C(Cc1cc2ccccc2[nH]1)N1C(=O)C2CC=C(Cl)CC2C1=O (stereo unspecified),-27%,x

# Following part
Structure,Vaccinia Venus,Vaccinia mCherry
CCCn1c(=O)c2sccc2n2c(CCCC(=O)N3CCN(c4ccccc4OC)CC3)nnc12,0%,-12%
N#Cc1cnn2cc(CCN3CCOCC3)c(-c3ccc(F)cc3)nc12,-14%,-12%
O=C(N/N=C/c1ccc(-c2ccccc2Cl)o1)c1ccccc1,-14%,-2%
CCCCn1c(SCC(=O)Nc2cc(C(F)(F)F)ccc2Cl)nnc1C(CC)N(C)C (stereo unspecified),-29%,-10%
Cc1c(C(=O)Nc2nc3ccccc3[nH]2)oc2ccccc12,-29%,u
c1ccc(Oc2cccc(OCCn3cncn3)c2)cc1,-5%,-6%
Cc1cc(NC(=O)C(Cl)Cl)cc2c1OCO2,-16%,-8%
O=C(COC(=O)C1(c2ccccc2F)CCCC1)NCc1ccc2c(c1)OCO2,-16%,-26%
Cc1ccccc1NC(=O)c1c(NC(=O)c2ccccc2)sc2c1CCC2,-5%,-6%
CCCNC(=O)c1ccc(N2CCC3(CC2)CC(c2ccccc2)=NO3)c(NC(=O)c2ccccc2)c1,-24%,-11%
CC(=O)Nc1cccc(-c2csc(Nc3cccc(C)n3)n2)c1,-23%,-15%
CC(C)(C)C(CN1CCCC1)OC(=O)c1ccccc1 (stereo unspecified),-13%,i
CCc1ccc(S(=O)(=O)Nc2cccc(-c3ccc(OC)nn3)c2)s1,-22%,-20%
Cc1ccc(N(CCC#N)C(=O)CCl)cc1C,-20%,-7%
CC(NC(=O)C(c1ccccc1)c1ccccc1)C(=O)N1CCCCC1 (stereo unspecified),-21%,7%
CC1Cc2nc(SCC(=O)Nc3ccc(F)cc3)n(C)c(=O)c2S1 (stereo unspecified),-12%,1%
Fc1ccc(-n2nnc(-c3nccs3)n2)cc1,-5%,i
CC(C)N1C(=O)CSC1c1ccc(Br)cc1 (stereo unspecified),-3%,i

# Compound activity deposited in PubChem by National Center for Advancing Translational Sciences (NCATS).
